# Screens as filed in PubChem BioAssay.
# NPYLR7 ag: activates Aedes aegypti NPYLR7 receptor; AID 1259423; hit rate 0.15% among 270,000; activation, % at 10 µM; HEK293T NPYLR7/Galpha15, GCaMP6s calcium fluorescence; in the data active = activation above about 40%;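 also: 0% = vehicle and 100% = reference agonist at the receptor; some compounds past the cut are filed as inactive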
# NPYLR7 ag max-min: recorded beside NPYLR7 ag, whose call it bears; activation, %; measured here: Max-Min RFU normalised activation; some inactives read as strong as hits;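 span of the calcium signal over five minutes; 0% = vehicle and 100% = native peptide agonist; compound fluorescence can raise it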
# An asterisk follows results filed as active. The list is partial. The share of hits here may be higher or lower than overall.
SMILES,NPYLR7 ag,NPYLR7 ag max-min
Cc1ccc(NC(=O)CN(C)Cc2nnc(C)n2C)cc1Cl,5.2,1.3
COc1ccc(C(=O)NCc2ccc(N(C)C)nc2)cc1OC(F)F,8.6,8.4
CC(C)CCN(C)C(=O)c1coc(COc2cccc(F)c2F)n1,-1.8,-5.9
CC(C)C1CN(C(=O)Cn2cnnn2)CCC(=O)N1Cc1ccc(F)cc1 (configuration not stated),4.9,-3.6
CC(C)N(Cc1ccc(OS(C)(=O)=O)cc1)S(=O)(=O)c1cccc2cccnc12,-7.7,-2.1
CC1(C)O[C@@H]2C[C@@](OCc3cccc(F)c3)(C(=O)NC3CC3)CC(OCc3ccc(F)cc3)[C@@H]2O1 (some centres not stated),14.8,-4.0
NC(c1ccccc1)c1cccc2ccccc12 (configuration not stated),12.0,12.8
Cc1cccc(C(N)C(=O)O)c1 (configuration not stated),-3.8,3.9
CN(C)CCN(C(=O)CN1C(=O)c2ccccc2C1=O)c1nc2c(F)cc(F)cc2s1,-4.2,-5.7
O=C(Cn1cnc2sc3c(c2c1=O)CCC3)Nc1ccc(F)c(F)c1,-15.0,-14.3
O=[N+]([O-])c1c(N2CCCCC2)ncnc1N1CCCCC1,11.2,7.1
O=C(NCCN1C(=O)SC(=Cc2ccccc2)C1=O)c1ccco1,-0.6,27.6
O=S(=O)(c1cc(F)cc(F)c1)N1CCN(C2c3ccccc3CCc3ccccc32)CC1,2.9,1.3
COc1cc(NCC(=O)NC(=O)NC(C)C)c(OC)cc1Cl,11.4,4.0
CC(NC(=O)COc1ccccc1)c1ccc2ccccc2c1 (configuration not stated),1.7,4.4
COc1cccc(-n2c(-c3ccccc3)cc(C(=O)N3CCN(C(=O)c4ccc(F)cc4)CC3)c2C)c1,-1.3,-1.2
CSc1nc(C(=O)N(C)CC2CCN(CCc3cccc(F)c3)CC2)cs1,11.3,6.9
CC(CCc1ccco1)NC1CCC2(CCNCC2)CC1 (configuration not stated),15.3,11.8
CN1CC2(CCCN(Cc3cn[nH]c3-c3ccc(F)cc3)CC2)OC1=O (configuration not stated),8.2,6.0
CC(=NNC(=O)CSc1nnc(SCc2ccccc2)s1)c1ccc([N+](=O)[O-])cc1,-3.0,-8.0
O=C(C1CCN(S(=O)(=O)c2ccccc2F)CC1)N1CCCc2ccccc21,-6.9,-9.6
CCC(c1nc2ccccc2c(=O)n1CC)N1CCNC(C)C1 (configuration not stated),6.9,13.6
COCc1cc(C)nc(N/N=C\c2ccccc2[N+](=O)[O-])c1C#N,-4.4,-7.3
CCCn1cc(CN2CCN(c3cccc(C(C)C)n3)CC2)c(C)n1,1.6,2.8

# Pulled by compound from the list above:
SMILES,NPYLR7 ag,NPYLR7 ag max-min
O=C(C1CCN(S(=O)(=O)c2ccccc2F)CC1)N1CCCc2ccccc21,-6.9,-9.6
O=S(=O)(c1cc(F)cc(F)c1)N1CCN(C2c3ccccc3CCc3ccccc32)CC1,2.9,1.3
CC(NC(=O)COc1ccccc1)c1ccc2ccccc2c1 (configuration not stated),1.7,4.4
CC(=NNC(=O)CSc1nnc(SCc2ccccc2)s1)c1ccc([N+](=O)[O-])cc1,-3.0,-8.0

# The list goes on:
SMILES,NPYLR7 ag,NPYLR7 ag max-min
Cc1[nH]nc(N)c1-c1ccccc1F,5.5,4.3
CCOC(=O)c1ccc(OC(C)C)c(Br)c1,1.3,4.6
COc1ccc(N(CC(=O)NN=C2CCCCCCC2)S(=O)(=O)c2ccccc2)cc1Cl,-10.4,-11.5
COc1ccc(CNC(=O)c2ccc(-c3ccc(F)c(F)c3)s2)c(OC)c1,0.5,14.2
O=C1CCC([N+](=O)[O-])C(c2ccc(OCc3ccccc3)cc2)N1 (configuration not stated),-14.9,-18.8
CCCC1=NN(C(=O)c2ccccc2Cl)C(O)(C(F)(F)F)C1 (configuration not stated),5.7,3.8
Cc1ccccc1SCC(=O)N1CCNCC1C(=O)N1CCOCC1 (configuration not stated),4.6,3.6
NC1CCC(Oc2ccc(Cl)cc2Br)CC1 (configuration not stated),8.8,7.3
CC(c1nc2ccccc2c(=O)[nH]1)N1CCN(C(=O)c2ccccc2)CC1 (configuration not stated),3.0,1.2
O[C@@H](c1ccccc1)[C@@H]1N(CC2CC2)C2CCC1(O)CC2,3.1,12.5
O=C(NC1CC(=O)N(C2CC2)C1)c1sccc1C1CC1 (configuration not stated),11.8,5.6
CC(C)CCc1noc(CN(C)Cc2nc3ccc(F)cc3[nH]2)n1,4.9,2.4

# 5 compounds from above, ordered by formula weight, lowest first:
SMILES,NPYLR7 ag,NPYLR7 ag max-min
O[C@@H](c1ccccc1)[C@@H]1N(CC2CC2)C2CCC1(O)CC2,3.1,12.5
CCCC1=NN(C(=O)c2ccccc2Cl)C(O)(C(F)(F)F)C1 (configuration not stated),5.7,3.8
CC(c1nc2ccccc2c(=O)[nH]1)N1CCN(C(=O)c2ccccc2)CC1 (configuration not stated),3.0,1.2
COc1ccc(CNC(=O)c2ccc(-c3ccc(F)c(F)c3)s2)c(OC)c1,0.5,14.2
COc1ccc(N(CC(=O)NN=C2CCCCCCC2)S(=O)(=O)c2ccccc2)cc1Cl,-10.4,-11.5

# Compound profiles, from the list above.
# `CCOC(=O)c1ccc(OC(C)C)c(Br)c1` as listed: NPYLR7 ag = 1.3; NPYLR7 ag max-min = 4.6
# `COc1ccc(CNC(=O)c2ccc(-c3ccc(F)c(F)c3)s2)c(OC)c1` as listed: NPYLR7 ag = 0.5; NPYLR7 ag max-min = 14.2
# `CC(c1nc2ccccc2c(=O)[nH]1)N1CCN(C(=O)c2ccccc2)CC1` (configuration not stated) as listed: NPYLR7 ag = 3.0; NPYLR7 ag max-min = 1.2

# Next structures:
SMILES,NPYLR7 ag,NPYLR7 ag max-min
CCN(c1ccc(F)cc1)S(=O)(=O)c1ccc2[nH]c(=O)[nH]c2c1,-3.2,-3.7
COc1cccc(S(=O)(=O)N2CCN(C(c3ccccc3)c3ccc(Cl)cc3)CC2)c1 (configuration not stated),20.0,15.9
O=C(CSc1ccc(-c2ccc(-n3cccn3)cc2)nn1)Nc1ccc(F)cc1,14.7,7.3
COc1cc(OC)cc(C(=O)N2CCN(C(C(=O)NCCc3ccccn3)C3CCCC3)CC2)c1 (configuration not stated),-4.5,0.6
O=C(COc1ccccc1O)N1CCOC(CC2CCCCC2)C1 (configuration not stated),4.7,0.8
COC(=O)CSc1ccc2nnc(CCNS(=O)(=O)c3ccc(C)cc3)n2n1,-6.0,-10.4
Cc1nn2c(NCCN3CCOCC3)cc(-c3ccccc3)nc2c1-c1ccccc1,3.9,2.2
O=c1scc(C(F)(F)F)n1CN1CCC(CN2CCOCC2)CC1,-8.9,-9.7
Cc1nc(C(C)C)cc(N(C)Cc2cc(-c3ccncc3)no2)n1,-2.4,2.5
Cc1cc(C)c([C@@H]2C[C@H]3CN(C4CCCC4)C(=O)[C@]34CCCN24)c(-n2cccn2)c1,-16.5,-21.4
C#CCN(C(=O)c1nc(C(C)C)ncc1Cl)C1CCCC1,8.7,3.8
CN(C)CCCOc1ccc(-c2nnc3ccc(-c4cccc(CO)c4)cn23)cc1,-8.7,-13.1
CCn1c(=O)c2ccccc2n(CC(=O)N(C)CCOc2ccccc2C)c1=O,-0.3,18.4
CCCCOc1ncccc1CNC(=O)c1cc(S(C)(=O)=O)ccc1C,3.5,0.8
CCCCC1C(=O)N(C)CCN1C(=O)c1ccc(=O)[nH]c1 (configuration not stated),8.1,6.1
COc1ccc(C2CC(=O)c3c(C)nn(-c4nc(C)cc(C)n4)c3C2)cc1 (configuration not stated),0.0,-0.9
Cc1nn(Cc2cccnc2)c(=O)c2c1cnn2-c1ccccc1,6.3,2.5
CCOC(=O)c1ccc(NCc2ccc3c(c2)CCCN3C)nc1,0.6,-1.2
COc1ccccc1Nc1nc(N)nc(CCl)n1,-4.7,-8.4
Cc1ccc(F)cc1CC(=O)NCc1csc(-c2cnccn2)n1,5.5,2.4
CN(C)CCCN(C(=O)CN1C(=O)c2ccccc2C1=O)c1nc2cc3c(cc2s1)OCCO3,0.1,-1.1
COc1ccccc1/C=C/C1=NC(=C\c2ccc(OC)c(OC)c2OC)/C(=O)O1,-1.9,-5.7
CN(C(=O)c1ccco1)C(Cc1ccc(F)cc1F)C1CCN(Cc2ccc3c(c2)CCO3)CC1 (configuration not stated),19.8,6.5
C=CCn1c(SCC(=O)N2CCCC2)nc2c([nH]c3ccccc32)c1=O,12.2,7.4
Fc1ccc(CN(C/C=C/c2ccco2)Cc2ccncc2)cc1,8.4,2.8
CC1CCCN(Cc2nc3c(c(=O)n(C)c(=O)n3C)n2Cc2ccc(Cl)cc2Cl)C1 (configuration not stated),2.9,-1.3
CCOc1ccc(C=C2SC(=O)N(CCNC(=O)c3ccc4c(c3)OCO4)C2=O)cc1OC,3.6,3.5
COc1ccc(CCN(Cc2ccc(C)s2)C(=O)CN(C2CCCCC2)S(=O)(=O)c2ccc3ccccc3c2)cc1OC,23.2,21.9
CC(=O)CSc1nnc2n1CCCN2,-4.8,-4.1
O=C(NC1CC1)c1nn(-c2ccc(F)cc2)c(=O)n(Cc2ccc(F)cc2)c1=O,15.5,10.9
COCCCNC(=O)CCc1cc2c(n1-c1ccc(F)cc1Cl)-c1ccccc1CO2,-0.3,-3.7
O=C(NCC1Cc2cc(Oc3ccccc3)ccc2O1)c1cccs1 (configuration not stated),7.5,15.0
O=C1Nc2ccccc2C12NN=C(c1ccccc1O)S2 (configuration not stated),-0.8,-0.7
Cc1cccnc1CN1CCN(Cc2cn[nH]c2C(=O)O)CC1,-7.2,-8.6
COC(=O)C1=C(C)OC(=N)C(C#N)C1c1cccc(OC)c1 (configuration not stated),-8.7,-13.1
CC1COC(NC(=O)c2ccccc2)C(NC(=O)c2ccccc2)O1 (configuration not stated),-0.4,4.3
O=C(Nn1cnc2c(cnn2-c2ccccc2)c1=O)c1ccco1,-1.0,-0.6
COc1ccc(S(=O)(=O)Nc2cc(O)cc(F)c2)c(C)c1,-26.3,-28.4
O=C(CC1C(=O)NCCN1Cc1ccccc1C(F)(F)F)NCCn1cccn1 (configuration not stated),-3.0,-4.5
N[C@@H](Cc1cnc[nH]1)C(=O)Nc1cnc2n1CCCC2,1.4,3.6
Cc1ccccc1-n1nnc(C(=O)Nc2ccccc2)c1N,3.8,8.9
O=C(Cn1nc(-c2ccco2)oc1=O)Nc1ccccc1-c1ccccc1,2.8,4.0
c1nc(Nc2ccc3c(c2)OCCO3)c2c3c(sc2n1)CCCC3,5.8,6.0
CCOC(=O)CCC(=O)N(CC(=O)c1c(C)c(C(=O)OC)n(CC)c1C)CC1CCCO1 (configuration not stated),-5.6,-0.5
O=C(CSc1ccc(F)cc1)NNC(=O)c1cccc(S(=O)(=O)N2CCCC2)c1,-8.2,-10.9
CCN(CC)S(=O)(=O)c1ccc(C(=O)Oc2coc(CSc3nc(C)cs3)cc2=O)cc1,17.9,5.1
O=S(=O)(c1ccc2c(c1)OCCO2)N1CCCC1c1ccc2c(c1)OCCCO2 (configuration not stated),3.3,1.2
CC1CN(C(=O)Cc2ccc3c(c2)OCCO3)C(=NCCc2ccccc2)S1 (configuration not stated),1.6,0.5
COC(=O)C1=NNC(C(=O)OC)=C2COCOCC12 (configuration not stated),27.1,25.8
O=C(Nc1ccccc1)c1ccc(NCc2nccs2)nn1,6.3,5.3
COc1cc(=O)oc(-c2ccccc2)c1C(C)=O,-5.1,-6.4
Cc1ccc(-c2cc(C(=O)Nc3ccncc3)c3ccccc3n2)o1,-7.1,-15.8
CCCNC(=O)C(C)S(=O)(=O)Cc1cc(-c2ccccc2)on1 (configuration not stated),-1.6,-3.1
CC(C)CNC(=O)c1ccc2c(=O)n(C(C)C)c3nn(C)c(=O)n3c2c1,2.1,-1.9
CC(C)(C)OC(=O)N1CCC(O)(C(F)(F)F)C1 (configuration not stated),15.7,21.3
Cc1ccc(F)c(C(=O)N2CCn3cncc3C2)c1F,-5.0,-10.0
O=C(NCc1cccnc1)c1c(O)c2ccccc2[nH]c1=O,15.8,9.6
Cn1c(=O)[nH]c(=O)c2c1nc(NCCc1ccccc1)n2Cc1ccccc1Cl,0.1,-1.6
CC(C)CC(=O)C(C#N)C(=O)Nc1ccccc1 (configuration not stated),5.9,2.3
CNc1cccc(-c2cncc3ccccc23)n1,2.4,0.8

# Filtered by structure, the entries above with a COOH group (2)
SMILES,NPYLR7 ag,NPYLR7 ag max-min
Cc1cccc(C(N)C(=O)O)c1 (configuration not stated),-3.8,3.9
Cc1cccnc1CN1CCN(Cc2cn[nH]c2C(=O)O)CC1,-7.2,-8.6
